# Screening results: PubChem BioAssay, several laboratories
# Beta2AR agonist = human beta-2 adrenergic receptor agonism by FAP; P07550; Am2.2-beta2AR cells, FAP receptor internalization, flow cytometry; reference of the scale not given here; response, % (test concentration not listed); 340,000 tested, 0.43% active; AID 504454;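 active = response above a set limit, near 3 SD of response in nonfluorescent compounds, cut at about 42% in these data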;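 also: stock transfer was 100 nL into about 11 µL; a reference agonist was the positive control; negative values mostly stem from fluorescent compounds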
# Target sequence (P07550 whole entry, looked up): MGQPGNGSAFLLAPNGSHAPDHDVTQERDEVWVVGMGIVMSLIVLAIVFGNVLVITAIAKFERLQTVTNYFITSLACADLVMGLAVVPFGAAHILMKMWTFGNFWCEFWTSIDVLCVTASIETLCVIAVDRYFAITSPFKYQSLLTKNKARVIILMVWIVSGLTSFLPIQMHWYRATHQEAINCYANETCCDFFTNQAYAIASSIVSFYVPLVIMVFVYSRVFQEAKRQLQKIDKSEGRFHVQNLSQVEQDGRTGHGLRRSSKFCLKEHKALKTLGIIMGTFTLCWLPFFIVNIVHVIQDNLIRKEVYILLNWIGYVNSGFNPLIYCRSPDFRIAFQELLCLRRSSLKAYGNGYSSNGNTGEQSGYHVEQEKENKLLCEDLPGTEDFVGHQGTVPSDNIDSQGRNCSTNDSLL
# FGF22 binding = FGF22 (human) thermal shift binding; calls only at 9.99 µM; recombinant FGF22 thermal shift, SYPRO orange fluorescence; percent of sucrose octasulfate shift, DMSO zero; 340,000 tested, 1.5% active; AID 651658;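 active = melting point raised past a set limit in the mean and every replicate; three in four hits are not shown here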
# Target sequence (Q9HCT0 whole entry, looked up): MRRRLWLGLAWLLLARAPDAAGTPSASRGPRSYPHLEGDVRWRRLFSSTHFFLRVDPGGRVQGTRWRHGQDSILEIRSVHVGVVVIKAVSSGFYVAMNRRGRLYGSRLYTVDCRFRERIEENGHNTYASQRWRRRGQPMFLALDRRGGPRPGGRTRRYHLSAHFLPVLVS
# UCH37 inh = blocks the human deubiquitinase UCH37; Q9Y5K5; purified proteasome/UCH37, Ub-AMC cleavage fluorescence; inhibition, % (concentration not given with the values); 330,000 tested, 0.33% active;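 active = mean of two replicates above 20%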;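 also: 0% = compound-free wells with enzyme and 100% = wells lacking proteasome; stock transfer was 100 nL into about 20 µL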
#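 Material: Human UCH37 enzyme supplied as purified proteasome complex | Schedule: 30 min compound-proteasome preincubation then 25 min substrate reaction, room temperature | Detection: AMC fluorescence from Ub-AMC cleavage, excitation 355 nm, emission 460 nm | Benchmarks: Wells without proteasome as full block, compound-free enzyme plus substrate as uninhibited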
# LANA-H2B inh = blocks KSHV LANA binding to histone H2A/H2B. Q9QR71. cell-free LANA-H2A/H2B peptide, fluorescence polarization. inhibition, % (no concentration beside the values). 320,000 tested, 0.6% active. AID 2629; in the data active = inhibition mostly above about 10%, no sharp cut-off; inactive = mostly below about 6.7%;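 also: stock transfer was 7.5 nL into about 10 µL; 0% = median of vehicle wells and 100% = median of positive control wells; one replicate is shown; the record names a cut of 25% in any replicate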
# ALR inh = human ALR oxidase inhibition via reduced H2O2; P55789; purified ALR, DTT oxidation, H2O2 HRP-luminol luminescence; inhibition, % (test concentration not listed); 290,000 tested, 3.8% active;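 active = mean and each replicate at 75% or more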;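 also: stock transfer was 7.5 nL into about 7.5 µL; 0% = neutral wells and 100% = wells with inactivated enzyme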
# Target sequence (P55789 whole entry, looked up): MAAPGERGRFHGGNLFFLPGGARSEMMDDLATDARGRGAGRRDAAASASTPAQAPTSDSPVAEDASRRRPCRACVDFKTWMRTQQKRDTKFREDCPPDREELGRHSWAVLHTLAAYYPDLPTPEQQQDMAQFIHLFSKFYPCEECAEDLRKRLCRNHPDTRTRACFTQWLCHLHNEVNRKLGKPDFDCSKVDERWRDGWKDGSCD
# Ecoli growth = E. coli growth inhibition. Escherichia coli growth, OD600, 23 h; hits give low values. OD600 absorbance (no concentration beside the values). 330,000 tested, 0.21% active. AID 1053175;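 active = OD600 absorbance below the run mean of sample wells minus 3.6 SD, in any replicate, cut at about 0.56 in these data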;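 also: stock transfer was 300 nL into about 60 µL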
# HNF4A DNA FP = change in binding of human HNF4 alpha to DNA | activity change, % at 10 µM | 360,000 tested, 0.3% active | AID 1224865 | HNF4a-FITC DNA binding, fluorescence polarization, 1 h | P41235; in the data active = activity change above about 30%, passing the limit was not always enough;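 also: controls were the assay level and a saturating level of protein; the project sought stronger binding though the title names inhibitors; some compounds called inactive have numbers as strong as hits; positive values seem to mean higher polarization but the record does not say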
# The depositor's hits bear a star; i = inactive; / = not tested or not shown; + = active, no number; & = joins results of further samples. Only part of the results is shown. The share of hits here may be higher or lower than overall.
SMILES,Beta2AR agonist,FGF22 binding,UCH37 inh,LANA-H2B inh,ALR inh,Ecoli growth,HNF4A DNA FP
O=C(Nc1ccc2nc(-c3cccs3)[nH]c2c1)c1cccs1,-11,/,-9.6,2.3,-7,0.68,-5.7
CC(C)c1cc(C(=O)O)c2ccccc2n1,-7,i,-2.0,-3.7,-7,0.73,0.4
COC(=O)c1ccc(NC(=O)CN2CCN(CC#N)CC2)cc1,-3,i,3.0,0.4,-1,0.68,2.2
O=[N+]([O-])c1ccc(CN2CCOCCOCCN(Cc3ccc([N+](=O)[O-])cc3)CCOCC2)cc1,-3,/,20,0.8,42,/,-0.8
CCN(CC)S(=O)(=O)c1ccc2c(c1)nc(SCC(=O)N(C)C1CCS(=O)(=O)C1)n2CC (stereo unspecified),10,i,2.6,5.9,-5,0.67,3.3
O=C1CC(c2ccccc2)c2ccccc21 (stereo unspecified),-7,i,0.5,-0.2,0,0.66,3.8
O=c1c([N+](=O)[O-])cccn1Cc1ccccc1Cl,-3,i,3.6,-3.2,-15,0.69,2.5
CN1Cc2cccc3c2C(Cc2ccccc2S3)C1 (stereo unspecified),-3,i,2.9,2.4,5,0.62,-4.7
CCOc1ccc(N(CC(=O)NC2CCCCC2)S(=O)(=O)c2c(C)noc2C)cc1,-11,i,5.5,4.8,18,0.75,2.8
C=CCOc1ccc(C2=NO[C@@H]3[C@@H]4C[C@@H]([C@H]5C(=O)N(C)C(=O)[C@@H]45)[C@H]23)cc1,1,i,1.1,-0.7,-8,0.64,0.4
O=C(C1Cc2ccccc2O1)N1CCCCC1 (stereo unspecified),2,/,3.3,4.0,-13,0.7,0.0
CCn1ncc(Br)c1C(=O)Nc1nccs1,5,/,1.0,4.9,-2,0.61,-1.9
CCOC(=O)c1cc2sccc2n1CCCN1C(=O)c2ccccc2C1=O,-3,i,-2.7,1.1,6,0.68,0.7
O=C(N/N=C/c1ccc(Cl)cc1)c1cc2c(s1)-c1ccccc1CC2,-9,/,/,-2.5,-8,/,-0.1
CCCS(=O)(=O)c1nc(S(=O)(=O)c2ccc(C)cc2)c(NCCCN(C)C)s1,-4,i,1.9,-5.0,3,0.65,3.3
Cc1cc(N2CC34C=CC(O3)C(C(=O)O)C4C2=O)no1 (stereo unspecified),-3,/,1.0,0.0,-3,0.72,-1.4
O=C(COC(=O)c1ccco1)NCc1ccc(Cl)cc1Cl,-2,i,-0.6,-5.9,-7,0.68,0.7
COc1ccccc1/C=N/N1C(=O)C(CC(=O)Nc2ccc([N+](=O)[O-])cc2OC)SC1=Nc1cccc(C)c1C (stereo unspecified),/,i,/,-3.3,-6,/,/
COc1ccc(CN2CCN(Cc3ccccc3)C(CCO)C2)cc1OC (stereo unspecified),6,i,-0.2,2.1,-5,0.72,-1.5
Brc1ccc2[nH]c3nc(SCCN4CCOCC4)nnc3c2c1,7&-6,i,6.7,-2.0,-5,0.79,0.2&4.3
Cc1ccc([N+](=O)[O-])cc1S(=O)(=O)Nc1ccc(C(=O)N(C)C)cc1,1,i,4.8,-0.2,1,0.66,0.5
CC1=C(C(N)=O)C(c2cccs2)NC(=O)N1 (stereo unspecified),-2,i,-2.1,-3.1,-3,0.69,-0.7
S=C(NCCCN1CCOCC1)NC1CCCC1,-1,i,2.3,0.6,-3,0.75,-4.4
COc1ccc(NC(C)c2ccccc2)cc1 (stereo unspecified),2,i,4.5,/,/,0.68,-3.8
CC(=O)c1c(C)[nH]c(C(=O)CN2C(=O)NC3(CCCCC3C)C2=O)c1C (stereo unspecified),12,i,4.0,/,/,0.67,2.7
SMILES,Beta2AR agonist,FGF22 binding,UCH37 inh,LANA-H2B inh,ALR inh,Ecoli growth,HNF4A DNA FP
CCCNC(=O)NC1CCCCCCC1,-11,i,1.3,3.9,7,0.65,0.5
CCN(CC)C(=O)CSC(=Nc1ccccc1F)NC#N,6,/,8.1,1.3,1,0.77,21
COc1cc(CNC[C@H]2O[C@@H](n3cnc(C(N)=O)n3)[C@H](O)[C@@H]2O)ccc1OCc1cccc(Cl)c1,1,i,/,/,/,/,-1.0
Cc1ccc(NC2c3ccccc3C(=O)N2CCN2CCOCC2)cc1 (stereo unspecified),-11,i,3.3,-0.1,98*,0.7,3.5
CCCN(C(=O)c1ccco1)c1nnc(-c2ccncc2)s1,-15,/,3.4,-2.3,-1,0.65,-0.4
CC(C)OC(=O)C1C(=O)CC(C)(O)C(C(=O)OC(C)C)C1c1ccc(F)cc1 (stereo unspecified),-1,i,0.9,2.9,-29,0.67,-1.3
CC(=O)N1CC2(C)CN(C(C)=O)CC(C)(C1)C2=O,-1,/,0.4,6.7,-5,0.75,0.2
CCSc1nnc(CCNS(=O)(=O)c2ccc(C(C)=O)cc2)n1C,1,i,0.9,1.4,/,0.68,-2.7
Cc1cc(Cl)ccc1NC(=O)C1CCCN1C(=O)c1cccs1 (stereo unspecified),-10,i,4.7,0.1,0,0.68,-0.3
c1ccc(Cn2ncc3c(N4CCOCC4)ncnc32)cc1,5,/,-1.1,3.7,-1,0.67,1.0
CN(Cc1cccs1)C(=O)Cn1cnc2ccccc2c1=O,-8,i,-3.0,0.6,-2,0.72,3.2
CCC(=O)Nc1ccc(Nc2nc(Cl)nc(Nc3ccc(NC(=O)CC)cc3)n2)cc1,1,i,/,-1.2,-16,/,-2.8
CC(CNC(=O)CN1C(=O)NC2(CCCCC2C)C1=O)c1ccccc1 (stereo unspecified),5,i,0.3,/,/,0.69,2.0
COC(=O)c1ccc2cc(OC)cc([N+](=O)[O-])c2n1,-5,i,/,/,/,/,3.1
CCOC(=O)N1CCC(NC(=O)CCC(=O)N2CC(C)Oc3ccc(Cl)cc32)CC1 (stereo unspecified),1,/,0.1,0.9,-14,0.75,3.0
CCCN(CC(=O)Nc1ccccc1C)C(=O)C1CC(=O)N(Cc2ccccc2)C1 (stereo unspecified),3,i,1.2,2.3,/,0.68,-2.0
COc1ccc(N2CCN(C(c3cc(OC)ccc3OC)c3nnnn3CC3CCCO3)CC2)cc1 (stereo unspecified),2,/,2.7,-3.7,48,0.72,8.3
CC[C@H]1c2[nH]c3ccccc3c2C[C@H]2C(=O)N(c3ccc(F)cc3)C(=O)N21,-14,i,-0.6,+,-8,0.69,1.2
CN(C)c1ccc(P(=O)(OC2CCCCC2)C(Nc2ccccc2)c2cccnc2)cc1 (stereo unspecified),-4,i,4.2,3.5,7,0.69,-0.6
O=C(Nc1ccccc1C(=O)NCCCN1CCOCC1)c1ccc(Cl)cc1,-6,i,6.2,88*,-9,0.7,-3.0
O=C1/C(=C/c2c[nH]c3ccccc23)CCC/C1=C\c1c[nH]c2ccccc12,-13,/,5.5,-8.5,7,0.71,105
COc1cccc(CN(C)C(=O)c2ccc(C)c(S(=O)(=O)N3CCCCC3)c2)c1,-2,i,3.1,0.7,-16,0.7,-3.1
Cc1ccc(-c2c(NC(=O)C(C)C)n(C)c3ccccc3c2=O)cc1,1,i,-13,1.4,-5,0.66,1.9
Cc1cc(CNC(=O)c2cccnc2Cl)c2ccccc2n1,2,i,1.1,0.7,-7,0.72,-15
COc1cc(/C=C2\SC(=Nc3cccnc3)NC2=O)cc(OC)c1OC,3,i,11,27*,/,0.65,8.1
SMILES,Beta2AR agonist,FGF22 binding,UCH37 inh,LANA-H2B inh,ALR inh,Ecoli growth,HNF4A DNA FP
COc1ccc(C(O)(CC(C)C)C(CN2CCOCC2)c2ccccc2)cc1 (stereo unspecified),-1,i,0.8,-6.2,-1,0.67,6.4
CC(C)c1nc(-c2ccccn2)no1,-1,/,-1.3,-0.8,0,0.66,-0.3
CS(=O)(=O)N(CC(=O)N1CCCCC1)c1ccc(Cl)c(C(F)(F)F)c1,2,/,6.2,-5.7,-3,0.69,1.7
O=C1CCCC(O)=C1C=NCCc1ccccc1,9,/,0.8,-3.9,-5,0.72,-0.7
CCN(CC)S(=O)(=O)c1cccc(-c2nnc(SCC(=O)N3CCC(C(=O)O)CC3)n2N)c1,-3,i,3.7,-0.5,-3,0.7,1.4
Cc1cccc(-c2cc3nc4c(c(N5CCCC(O)C5)n3n2)CCC4)c1 (stereo unspecified),-12,/,-18,-2.0,10,0.72,1.7
O=C1c2ccccc2C(=O)N1c1cccc2ccccc12,-7,i,0.5,2.9,0,0.66,2.2
Cc1ccccc1/[N+]([O-])=C/c1cccs1,-1,i,7.9,-0.3,-2,0.69,-6.0
O=C(NC(=S)Nc1ccc2oc(=O)ccc2c1)c1ccccc1F,-2,i,4.3,1.8,-7,0.65,21
CN(CC(=O)Nc1ccc2c(c1)OCCO2)S(=O)(=O)c1ccc(Br)s1,5,/,1.7,-1.5,/,0.68,-0.7
O=C(c1ccc(CS(=O)(=O)c2ccccc2)o1)N1CCN(c2ncccn2)CC1,3,i,-1.6,2.1,/,0.72,-0.2
CCC(C)(CC(=O)O)CC(=O)Nc1cc(C(F)(F)F)cc(C(F)(F)F)c1 (stereo unspecified),4,i,0.3,1.2,-10,0.67,9.7
CCOC(=O)c1c(C)[nH]c(C(=O)OCC(=O)Nc2ccc(OC)c(Cl)c2)c1C,3,/,1.3,-2.0,/,0.65,-2.4
COc1cc(S(=O)(=O)Nc2ccccc2C(=O)N2CCCCC2)ccc1NC(C)=O,-11,i,1.3,1.5,0,0.68,-1.1
Cc1ccccc1C(=O)NC(=S)NC1CC1,0,i,5.0,-1.3,6,0.67,-4.0
Cc1ccc(SCc2cn3ccccc3n2)cc1,-15,i,5.1,0.8,7,0.56,3.3
Cc1c(Cc2c(C)n(C)n(-c3ccccc3)c2=O)c(=O)n(-c2ccccc2)n1C,1,/,1.4,-8.1,1,0.72,2.4
Cc1ccc(C2(c3noc(CN(C)CCO)n3)CCCC2)cc1,4,i,0.8,-4.9,-17,0.73,-0.2
CCN(N=O)[C@@H](Cc1ccccc1)CN(N=O)[C@@H](Cc1ccccc1)CN(C)N=O,0,i,4.7,-2.1,-3,/,2.1
CCOc1cc(C(=O)OCC(=O)Nc2ccc(Cl)cn2)ccc1OCC(=O)N1CCOCC1,4,i,0.9,-2.1,7,0.69,1.2
Cc1ccc(-n2c(Cc3cccn3C)nnc2SCC(=O)N2CCc3ccccc32)cc1,-7,/,0.4,4.3,/,0.66,3.8
COC(=O)c1ccc(/C=N/NC(=O)c2cccc(F)c2)cc1,-2,i,/,-0.3,-11,/,-1.6
CN(C)S(=O)(=O)Nc1ccc2c(c1)OCO2,11,i,4.2,5.3,4,0.7,-2.7
Cc1nc(Cl)c(C(=O)NCCC(C)C)c(C)c1[N+](=O)[O-],-11,/,-1.5,1.5,0,0.7,1.7
C=C(C)C1Cc2nc(N)nc(C)c2C1 (stereo unspecified),-33,/,0.3,-0.6,-2,0.67,2.9
CCOC(=O)N1C=CC(C)=C[C@@H]2[C@@H](N3C(=O)c4ccccc4C3=O)C(=O)N21,0,/,5.3,2.3,43,/,-0.9
CCOc1ccc(S(=O)(=O)N(CC)CC)cc1NC(=O)c1ccc(N2CCCC2=O)cc1,2,i,/,-0.3,-4,/,1.2
CCC(C)(C)C1CCC2(CC1)NC(=O)N(CC(=O)NC(C)CCc1ccccc1)C2=O (stereo unspecified),-2,i,0.5,/,/,0.65,-0.7

# Another view of some results above:
# Screens in order – Beta2AR agonist | FGF22 binding | UCH37 inh | LANA-H2B inh | ALR inh | Ecoli growth | HNF4A DNA FP
Cc1cccc(-c2cc3nc4c(c(N5CCCC(O)C5)n3n2)CCC4)c1 (stereo unspecified)
 : -12 | / | -18 | -2.0 | 10 | 0.72 | 1.7
O=C1c2ccccc2C(=O)N1c1cccc2ccccc12
 : -7 | i | 0.5 | 2.9 | 0 | 0.66 | 2.2
Cc1ccccc1/[N+]([O-])=C/c1cccs1
 : -1 | i | 7.9 | -0.3 | -2 | 0.69 | -6.0
O=C(NC(=S)Nc1ccc2oc(=O)ccc2c1)c1ccccc1F
 : -2 | i | 4.3 | 1.8 | -7 | 0.65 | 21
CN(CC(=O)Nc1ccc2c(c1)OCCO2)S(=O)(=O)c1ccc(Br)s1
 : 5 | / | 1.7 | -1.5 | / | 0.68 | -0.7
